Cruzain inh noDet: cruzain (T. cruzi) inhibition without detergent; P25779; purified cruzain, Z-FR-AMC fluorescence, no detergent; Potency, µM, for inactives: max response, negative = inhibition, most hits filed as inhibitors; 2.3% of 200,000 active; AID 1476;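 also: plate controls were enzyme without inhibitor for no effect and buffer without enzyme for full effect; nearly all actives have a fitted effect of over 40% in size; top concentration of the series not given in the record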
Target sequence (P25779 123-467 limits assumed): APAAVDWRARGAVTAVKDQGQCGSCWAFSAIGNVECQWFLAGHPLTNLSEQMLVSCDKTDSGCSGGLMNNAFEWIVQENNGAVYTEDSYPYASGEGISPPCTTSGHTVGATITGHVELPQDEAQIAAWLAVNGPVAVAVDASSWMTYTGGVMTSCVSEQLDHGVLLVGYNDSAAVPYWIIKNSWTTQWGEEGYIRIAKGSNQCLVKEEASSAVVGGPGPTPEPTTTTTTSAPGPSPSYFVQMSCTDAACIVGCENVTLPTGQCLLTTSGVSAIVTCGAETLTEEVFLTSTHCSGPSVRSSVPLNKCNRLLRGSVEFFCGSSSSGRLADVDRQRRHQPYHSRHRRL
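Purified cruzain at 1.5 nM, pre-incubated 15 min with compound at room temperature in 100 mM sodium acetate pH 5.5, 5 mM DTT, 0.00005% Triton X-100. Reaction started with 2 uM Z-FR-AMC; AMC fluorescence increase over 60 s gives rate.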
StopGo reporter: FMDV 2A StopGo reporter, luciferase signal; 1.2% of 410,000 active; Potency, µM (doses to about 57.9 µM), for the others: at the highest dose signal change, negative = less light; human cells with a luciferase reporter of 2A StopGo recoding; control for the full effect not named in the record; active = well fitted falling curve with a large enough effect; inconclusive = small, poorly fitted or top-dose-only effect; inactive = no such curve, though single readings can be large or run the other way; tested in HEK293T cells; also: % is scaled to controls: 0 for no effect and ±100 for the full control effect; nearly all actives have a fitted effect of over 45% in size; luciferase light after 4 h
Cruzain Triton: cruzain (T. cruzi) inhibition with detergent | P25779 | purified cruzain, Z-FR-AMC fluorescence, 0.01% Triton | Potency, µM, for inactives: max response, negative = inhibition, hits mostly inhibitors | 0.43% of 200,000 active;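 also: plate controls were neutral wells for no effect and buffer without enzyme for full effect; nearly all actives have a fitted effect of over 40% in size; top concentration of the series not given in the record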
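Steps: dispense cruzain (1.5 nM final) in acetate buffer pH 5.5 with DTT and 0.01% Triton X-100; pin-transfer compounds; incubate 15 min RT; add Z-FR-AMC (2 uM final); read fluorescence every 30 s, using the 60 s intensity change.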
SARS PLpro yeast: SARS-CoV PLP inhibition in yeast; S. cerevisiae expressing SARS-CoV PLpro, growth rescue; control for the full effect not named in the record; Potency, µM (top dose mostly 32.9 µM), for inactives: top-dose activity, positive = growth rescue; 0.19% of 330,000 active; active means well fitted rising curve with a large enough effect; inconclusive means small, poorly fitted or top-dose-only effect; inactive means no such curve, though single readings can be large or run the other way; also: 0% is about no effect; nearly all actives have a fitted effect of over 55% in size; growth read by luminescence after 48 h
RE007 growth inh: less growth of the S. pombe RE007 Vpr strain. S. pombe RE007 Vpr strain, BacTiter-Glo ATP luminescence, 24 h; control for the full effect not named in the record. Potency, µM (highest dose often 92.2 µM), for the others: at the highest dose activity change, negative = less growth. 0.21% of 360,000 active. AID 651644; active = well fitted falling curve with a large enough effect; inconclusive = small, poorly fitted or top-dose-only effect; inactive = no such curve, though single readings can be large or run the other way;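 also: % is scaled to controls: 0 for no effect and ±100 for the full control effect; nearly all actives have a fitted effect of over 50% in size; the assay follows cell death caused by Vpr and the record does not say whether a fall means rescue or toxicity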
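Fission yeast strain RE007, carrying one chromosomally integrated HIV-1 vpr copy, was seeded at OD 0.01 in PMG+AL medium with 23 nL pinned compound. After 24 h at 30 °C and 99% humidity, viability was read by BacTiter-Glo luminescence.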
MARV entry inh: Marburg virus entry inhibition; Potency, µM (doses to about 37.8 µM), inactives show at the top dose activity change, negative = inhibition, most hits filed as inhibitors; Marburg virus pseudotyped entry inhibition, cell reporter; control for the full effect not named in the record; about a third of the inactives were read at about 46 µM; 1.8% of 300,000 active; active = well fitted inhibition curve with a large enough effect; inconclusive = small, poorly fitted or top-dose-only effect, or effect the other way; inactive = flat fitted curve, though single readings scatter; tested in HEK293 cells; about a fifth of its hits are not listed in these tables; also: % is scaled to controls: 0 for no effect and ±100 for the full control effect; luciferase read-out
LASV entry inh: Lassa virus entry inhibition; AID 540256; Potency, µM (top dose mostly 37.9 µM), for inactives: at the highest dose activity change, negative = inhibition, actives largely listed as inhibitors; Lassa virus pseudotype entry inhibition, cell reporter; control for the full effect not named in the record; 1.2% of 300,000 active; active means well fitted inhibition curve with a large enough effect; inconclusive means small, poorly fitted or top-dose-only effect, or effect the other way; inactive means flat fitted curve, though single readings scatter; tested in HEK293 cells; also: % is scaled to controls: 0 for no effect and ±100 for the full control effect; nearly all actives have a fitted effect of over 50% in size; luciferase read-out
NS1 function inh: influenza NS1 inhibition; 0.4% of 270,000 active; Potency, µM (highest dose often 46.1 µM), inactives show at the top dose activity, positive = more growth; AID 2326; S. cerevisiae slowed by influenza A NS1, growth recovery by OD600; active means well fitted rising curve with a large enough effect; inconclusive means small, poorly fitted or top-dose-only effect; inactive means no such curve, though single readings can be large or run the other way; also: nearly all actives have a fitted effect of over 50% in size
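Recovery from NS1-induced slow growth read by OD600 in budding yeast switched to galactose assay medium (pH 6.0, -URA) at 1:100 dilution. Compound 23 nl per well; the matching strain lacking NS1 serves as control.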
An asterisk follows results filed as active; ? = inconclusive; / = no result given; & = joins results of further samples; [ ] = dose if it differs, or a comment. Unless noted, calls follow the shape of the dose curve; as a rule, active = well fitted curve in the direction sought with a large enough effect; inconclusive = small, poorly fitted or top-dose-only effect, or another doubt; inactive = no such curve, though single readings can be large; an effect the other way counts as inactive or inconclusive. Potency is read from the fitted curve at half-maximal effect.

SMILES	Cruzain inh noDet	StopGo reporter	Cruzain Triton	SARS PLpro yeast	RE007 growth inh	MARV entry inh	LASV entry inh	NS1 function inh
O=C1CNC(=O)/C1=C/c1ccccc1	0.5%	-3.9%	-0.2%	-8.8%	-2.8%	?	7.8%	19.8%
O=C(Nc1cccc2cccnc12)c1ccc2c(c1)OCCO2	1.3%	57.8%[activator]	-5.4%	-16.3%	-24.0%	4.4%	?	-12.4%
CCN(CC)CCNC(=O)Cc1nn(Cc2ccccc2)c(=O)c2ccccc12	/	10.1%	/	0.6%	0.5%	5.2%[46.1 µM]	-12.2%	2.9%
Cn1cc(CNCc2cn(C)nc2-c2ccc(C3CCCCC3)cc2)cn1	/	63.1%[activator]	/	-0.5%	19.9%	?	-12.7%	1.5%
N#CC1=C2N=C(N)c3ccccc3N2C2=C(C(=O)CCC2)C1c1ccccc1F (centres undefined)	/	0.6%	/	5.2%	0.2%	/	/	-7.2%
C/C(CC(=O)Nc1cc(C)ccn1)=N\NC(=O)C(=O)NC(C)C	/	-14.8%	/	-5.9%	-0.4%	11.5%[46.1 µM]	18.7%	8.3%
Cc1cc(C)n2nc(C(=O)NC(c3ccccc3)c3ccccc3)nc2n1	/	-21.4%	/	1.6%	-4.0%	/	?	/
O=C(c1cc(COc2cccc3cnccc23)on1)N1CCCC(CCCO)C1 (centres undefined)	/	31.6µM*	/	-0.1%	-8.1%	/	/	-23.9%
CN(C(=O)CN1C(=O)S/C(=C\c2ccccc2)C1=O)C1CCS(=O)(=O)C1 (centres undefined)	/	-2.6%	/	2.2%	3.8%	/	/	1.2%
CC1(C)Cc2nc3sc4c(=O)n(Cc5ccccc5)cnc4c3cc2CS1	-29.0%	0.0%	-10.6%	-0.6%	0.0%	-4.4%	-11.8%	20.8%
CC(C)CC(NC(=O)C1CCC(=O)N1C(=O)OCc1ccccc1)C(=O)NC(Cc1ccccc1)C(N)=O (centres undefined)	/	83.3%[activator]	/	3.6%	1.8%	13.4%	-0.4%	-9.9%
CCCC(=O)Nc1ccc(C(=O)n2nnc3ccccc32)cc1	-12.4%	1.0%	-8.0%	-0.9%	10.9%	4.3%	15.7%	-36.0%
COc1ccc(-c2nc(SCC(=O)NCCc3ccccc3)n[nH]2)cc1	-7.4%	-17.5%	0.5%	/	/	/	?	/
CCOc1ccc(C2=Nn3c(nnc3-c3cccnc3)SC2)cc1	3.9%	-4.9%	-4.4%	2.4%	16.2%	5.8%&5.8%	-22.5%	2.8%
Cn1c(CN2CCN(c3ccccc3NS(C)(=O)=O)CC2)nc2ccccc21	/	-26.0%	/	0.7%	-14.1%	/	/	-2.0%
Cc1cc(C)c(S(=O)(=O)N2CCc3ccccc32)c(C)c1	/	?	/	2.4%	9.5%	/	/	-37.0%
O=C(CSc1nnc(NC(=O)c2ccco2)s1)Nc1ccccc1Cl	/	0.0%	/	0.2%	5.8%	7.8%[46.1 µM]	/	-4.1%
CCOc1ccccc1N1C(=O)CC(Sc2nccc(C)n2)C1=O (centres undefined)	/	-2.6%	/	-1.8%	0.5%	/	/	3.5%
CCN(Cc1ccccc1)S(=O)(=O)c1cc(C(=O)NCC2CCCCC2)ccc1OC	6.2%	-29.3%	-5.0%	2.1%	9.8%	?	?	14.9%
O=S(=O)(c1cccs1)N1CCC(Cc2ccccc2)CC1	7.0%	-24.2%	-10.3%	-1.4%	-6.6%	-8.9%	7.2%	-23.1%
O=C(CN1C(=O)NC2(CCCC2)C1=O)N1CCN(c2cccc(C(F)(F)F)c2)CC1	/	?	/	0.1%	-14.7%	-23.3%	-15.0%	/
CCc1nnc(NC(=O)Cn2nnc(-c3ccccc3F)n2)s1	-3.7%	12.7%	0.4%	14.6%	-4.7%	21.1%	0.9%	-3.0%
Cc1ccccc1NC(=O)c1ccc2snnc2c1	/	0.0%	/	-8.7%	-18.1%	/	/	1.1%
Cc1cc(C)cc(C(=O)Nc2c3c(nn2-c2ccccc2C)CS(=O)(=O)C3)c1	-11.5%	-2.6%	0.4%	/	/	/	12.7%[46.1 µM]	/
CCOc1ccccc1N1CCN(Cc2ccc(OC)c(OC)c2)CC1	0.9%	?	2.4%	-0.6%	-15.7%	-29.7%	-5.7%	3.2%
O=C(CNC(=O)OCc1ccccc1)Oc1ccc2ccc(=O)oc2c1	/	-17.7%	/	1.1%	6.5%	/	/	-5.3%
CC(=O)Nc1ccc2oc(-c3cc(F)c(F)cc3Cl)nc2c1	?	18.1%	0.8%	-1.6%	2.8%	-3.0%	?	-0.9%
CC(C)NS(=O)(=O)c1ccc(CCC(=O)Nc2ccc3c(c2)OCO3)cc1	-3.0%	/	0.9%	5.8%	0.8%	11.3%	-15.4%	12.9%
O=C(NC(CO)C(=O)OCc1ccccc1)OCc1ccccc1 (centres undefined)	/	0.0%	/	-2.1%	-1.0%	?	-16.1%[46.1 µM]	/
CCOC(=O)C1=C(O)/C(=C\c2cccs2)N=C1C	-7.9%	11.4%	-0.8%	-13.5%	-20.2%	-4.3%	12.6%	1.9%
COC(=O)c1ccccc1NC(=O)c1ccc(-c2ccc(Br)cc2)o1	7.94µM*	?	-12.9%	2.3%	-15.1%	0.0%	10.4%	0.2%
Cc1cc(C)n2nc(SCCC(=O)NCc3ccccc3)nc2n1	/	-4.1%	/	0.5%	2.7%	-17.8%[46.1 µM]	15.8%	-0.7%
CCCCCn1c(=O)c(C(=O)Nc2ccccc2N)c(O)c2ccccc21	/	-19.4%	/	-10.0%	2.8%	/	/	7.1%
Cc1cc(C)n(CCOC(=O)c2sc3ccccc3c2Cl)n1	16.3%	7.2%	-11.3%	-4.8%	-10.7%	6.8%	5.7%	-103.7%
Cc1ccc(C)c(NC(=O)C(NS(=O)(=O)c2ccc3c(c2)CCC(=O)N3)c2ccccc2)c1 (centres undefined)	?	-27.8%	0.7%	/	/	?	-16.7%[46.1 µM]	/
CCOc1ccccc1CNC(=O)c1cnc2sc(N3CCC(C)CC3)nn2c1=O	11.5%	-16.9%	3.5%	/	/	/	27.1%[46.1 µM]	/
Cc1cccc(Nc2nc(N)c([N+](=O)[O-])c(N3CC(C)CC(C)C3)n2)c1 (centres undefined)	-0.7%	22.4µM*	-9.2%	4.4%	-25.7%	?	?	16.3%
O=C(N/N=C/c1ccccc1[N+](=O)[O-])c1cnccn1	/	42.4%[activator]	/	0.4%	-5.8%	/	?	-0.3%
CC(C)CN(C(=O)COC(=O)c1ccc2c(c1)NC(=O)CS2)C1CCS(=O)(=O)C1 (centres undefined)	-12.4%	-5.5%	-8.4%	-1.9%	0.5%	-5.4%	1.1%	-5.7%
Cc1cc(=O)[nH]c(Nc2cccc(F)c2)n1	/	11.2%	/	0.5%	-21.2%	-2.3%	16.7%	-4.5%
O=C(NCc1ccc(Cl)cc1)C(=O)NCC1OCCN1C(=O)c1cccs1 (centres undefined)	15.0%	-12.8%	1.7%	20.5%	-3.1%	11.3%	14.2%	6.9%
COc1ccc(-c2nc3scc(-c4ccc(OC)c(OC)c4)c3c(=O)o2)cc1	4.1%	/	-3.2%	11.3%	-3.9%	?	?	2.6%
O=C1c2ccccc2C(=O)N1CC(=O)N1c2ccccc2CCc2ccccc21	?	-17.0%	-3.3%	-13.7%	21.5%	-7.7%[46.1 µM]	3.9%	8.8%
Cc1ccc(OCCCCN2CCC(C)CC2)cc1	/	-4.7%	/	-0.2%	-10.4%	?	?	2.3%
Cc1ccc(-n2c(=O)c3c4c(sc3n(CC(=O)Nc3ccccc3C)c2=O)CCCCC4)cc1C	5.3%	3.1%	2.0%	/	/	?	5.1%[46.1 µM]	/
COc1ccccc1CN(C)C(=O)CSCC(=O)Nc1ccccc1F	/	-27.3%	/	-1.4%	-8.2%	-6.4%	-16.8%	/
O=S(Cc1ccc(Br)cc1)Cc1nnc(SCc2c(F)cccc2Cl)n1-c1ccccc1 (centres undefined)	13.0%	35.5µM*	-1.4%	-4.5%	0.3%	?	?	-8.9%
COc1ccccc1N1CCN(C(=O)CN2C(=O)C3CCCCC3C2=O)CC1 (centres undefined)	/	41.9%[activator]	/	-1.0%	5.7%	12.7%	3.2%	3.7%
Cc1ccc(NC(=O)CN2CCN(c3ccccc3F)CC2)cc1F	5.9%	-9.5%	-3.8%	/	/	/	14.2%[46.1 µM]	/
Cc1cc(SCC(=O)c2ccc(O)c(O)c2)n2nc(C)c(-c3ccccc3)c2n1	/	-21.5%	/	?	0.2%	/	/	12.6%
COc1ccc2nc(N3CCC(O)CC3)c(C#N)cc2c1	-5.6%	31.2%[activator]	-2.6%	25.2%	-2.2%	8.4%	-12.4%	-4.2%
CCOC(=O)C1CCN(C(=O)COc2ccc(S(=O)(=O)N3CCCC3)cc2C)CC1	/	-17.0%	/	0.5%	-1.9%	-13.8%	-7.2%[46.1 µM]	-4.1%
c1ccc2nc3c(nc2c1)CCCC3	/	4.3%	/	0.1%	7.8%	/	/	5.6%
CC(=O)c1c(C)[nH]c(C(=O)Nc2ccc(F)c(F)c2F)c1C	/	49.3%[activator]	/	-1.1%	0.8%	?	13.4%	-7.2%
COc1ccccc1-n1c(SCC(=O)Nc2cccc(C(=O)O)c2)nnc1-c1ccccc1C	/	-12.5%	/	17.3%	-6.2%	/	/	12.6µM*
Cc1ccc(C(=O)N2CCCC(C(F)(F)F)C2)cc1S(=O)(=O)N1CCCCC1 (centres undefined)	/	0.0%	/	-3.3%	8.7%	-23.2%	-11.8%	/
Cc1ccc(/C=C/c2nnc(-c3ccccc3)o2)cc1	0.5%	/	-1.1%	-3.1%	-3.3%	?	?	-9.5%
Cc1cccc(-n2c(-c3ccco3)nc3ccccc3c2=O)n1	-4.3%	-10.5%	0.3%	-1.8%	-6.4%	?	-0.3%	4.2%
Nc1nnn(CC(=O)N/N=C/c2ccccc2)n1	/	4.3%	/	7.7%	2.7%	4.7%	/	3.5%
COc1ccc([C@@H]2[C@@H]3C(=O)N(C(C)(C)C)C(=O)[C@@H]3[C@]3(Cc4ccc(Cl)cc4)C(=O)N(c4ccc(Br)cc4)C(=O)N23)cc1	/	-13.4%	/	4.1%	-7.3%	/	/	25.7%
Cc1ccc(OCCn2c(C3CC(=O)N(Cc4ccc(F)cc4)C3)nc3ccccc32)c(C)c1 (centres undefined)	-2.2%	-28.1%	-0.7%	/	/	?	?	/
